HPGD inh: inhibitors of human 15-hydroxyprostaglandin dehydrogenase (HPGD) | P15428 | Potency, µM, without a hit: at the highest dose activity change, negative = inhibition, most hits filed as inhibitors | AID 894 | actives 4.3% (n = 150,000) | purified HPGD, NADH fluorescence kinetic, PGE2 substrate; active = well fitted inhibition curve with a large enough effect (not every such curve was filed as active); inconclusive = small, poorly fitted or top-dose-only effect, or another doubt; inactive = no such curve, though single readings can be large or run the other way;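 further: top concentration of the series not given in the record; plate controls included wells without enzyme; inactives centre near -10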
Target sequence (P15428 whole entry, looked up): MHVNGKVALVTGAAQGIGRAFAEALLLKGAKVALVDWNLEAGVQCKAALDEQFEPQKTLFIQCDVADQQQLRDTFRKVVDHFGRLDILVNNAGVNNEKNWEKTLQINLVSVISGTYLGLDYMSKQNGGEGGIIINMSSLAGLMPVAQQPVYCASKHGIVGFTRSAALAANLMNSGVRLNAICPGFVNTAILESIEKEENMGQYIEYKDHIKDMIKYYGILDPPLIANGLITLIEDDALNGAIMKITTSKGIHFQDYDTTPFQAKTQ
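20 nM HPGD preincubated 15 min at room temperature with compound in 50 mM Tris-HCl pH 8, 0.01% Tween 20. Started with 1 mM NAD+ and 30 uM prostaglandin E2; NADH fluorescence (360/450 nm) read 5 times over 30-s intervals, last minus first.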
Numbers without * were called inactive; ? = inconclusive; & = joins results of further samples. On the % scale 0 is the no-effect control and ±100 the full control effect; potency means the concentration at half of the fitted maximal effect. Not all compounds are listed (hit frequency here may not be typical).

SMILES | HPGD inh
CCOC(=O)C1CCN(S(=O)(=O)c2cc(Cl)c(C)cc2OC)CC1 | -4%
CCCOc1ccc(C(C)=O)cc1CC(C(=O)OCC)C(=O)OCC | -3%
CCOC(=O)N1CCN(C(=O)CNC(=O)c2nn(-c3ccc(OC)cc3)c(=O)c3ccccc23)CC1 | 3%
COC(=O)CNC(=O)C1(C)C=CCN1C(=O)c1ccccc1 (centres undefined) | -15%
CCCOC(=O)c1[nH]c2c(c1C)C(=O)CC(c1ccc(OC)c(OC)c1)C2 (centres undefined) | -13%
O=C(c1ccc(F)cc1)N(Cc1ccccc1)C1CCS(=O)(=O)C1 (centres undefined) | -12%
COc1ccc(NC(=O)c2cccs2)cc1NC(=O)c1ccco1 | -4%
CCOC(=O)Cc1[nH]nc2c1C(c1ccoc1)C(C#N)=C(N)O2 (centres undefined) | -27%
COc1ccccc1C1C(C#N)=C(N)Oc2cc(C)n(CCCn3ccnc3)c(=O)c21 (centres undefined) | -13%
Cc1cc(C(=O)OCC(=O)NC(C)C)c(C)o1 | 2%
COc1cccc(/C=N/NC(=O)C(=O)N2CCCC2)c1O | ?
O=C(/C=C/c1ccc(Cl)cc1)NCc1ccco1 | -21%
CCOc1ccc(C(=O)O/N=C(\N)c2ccc([N+](=O)[O-])cc2)cc1OCC | -11%
O=C(CSc1nnnn1-c1ccccc1)NC(=O)NCc1ccco1 | -7%
COc1ccc(-c2csc(N3C(=N)SCC3=O)n2)cc1 | -9%
CSC1=NCCN1C(=O)c1c(F)cccc1F | -7%
COc1cc2cc(C(c3nnnn3C3CCCC3)N3CCCCCC3)c(=O)[nH]c2cc1OC (centres undefined) | -18%
Cc1ccc(-c2ccc(=O)n(CC(=O)NCc3ccco3)n2)cc1 | -7%
Cc1ccc2c(c1)C1CN(C)CCC1N2C(=O)c1ccccc1NS(=O)(=O)c1cccc(C(F)(F)F)c1 (centres undefined) | -10%
COC(=O)c1nc2n(n1)C(c1ccccc1OC)C1=C(CCCC1=O)N2 (centres undefined) | ?
Cc1cc(=O)n2nc(N3CCCC(C(=O)N4CCc5ccccc54)C3)sc2n1 (centres undefined) | 1%
COc1cc(NC(=O)N[C@@H](Cc2ccccc2)C(=O)O)cc(OC)c1 | 0%
COc1ccc(-c2cc(-c3ccccc3)nc(N3CCCC3)n2)cc1OC | ?
COc1ccc(COc2cc(-c3cccc(OC)c3)nc3ccc(NC(=O)c4ccc(C)cc4)cc23)cc1 | ?
CC(C)NS(=O)(=O)c1ccc(NC(=O)C(C)Oc2ccc(C(=O)c3ccccc3)cc2)cc1 (centres undefined) | ?
COCCn1c(C)cc(C(=O)CSc2nc3ccccc3c(=O)[nH]2)c1C | 16µM*
COc1ccccc1C(c1nnnn1Cc1ccco1)N1CCN(c2cccc(C)c2C)CC1 (centres undefined) | 1%
COc1cccc(NC(=O)NCCCSC2CCCCC2)c1 | -22%
Nc1nnc(N2CCCCCC2)s1 | -12%
Cc1cc(C)c(NC(=O)c2cc(=O)c3ccccc3o2)c(C)c1 | 1%
CCC(=O)c1ccc(N2CCCC2)c(F)c1 | -22%
CCCCc1ccc(NC(=S)NCc2cccnc2)cc1 | -9%
COc1ccc(/C(O)=C2\C(=O)C(=O)N(CCCN(C)C)C2c2ccccc2F)cc1Cl (centres undefined) | -3%
Cc1ccc2c(c1[N+](=O)[O-])C(=O)c1ccccc1C2=O | -4%
CCOCCCn1cnc2c([nH]c3cc(OC)ccc32)c1=O | -4%
COc1ccccc1NS(=O)(=O)c1cccc(NC(=O)Cc2cccs2)c1 | -12%
Cc1cccc(NC(=O)c2cc3n(n2)C(C(F)(F)F)CC(c2ccc4c(c2)OCO4)N3)c1 (centres undefined) | ?
COc1ccc(S(=O)(=O)N(CC(=O)Nc2ccc3c(c2)OCO3)c2ccccc2OC)cc1 | 16µM*
CCCCOC(=O)Nc1ccc2c(C)cc(=O)oc2c1 | ?
CCS(=O)(=O)N1CCCC(C(=O)NCCCOC)C1 (centres undefined) | -4%
Cc1onc(-c2c(Cl)cccc2Cl)c1C(=O)NCc1ccccn1 | -16%
Cc1cccc(C)c1NC(=O)CSc1nnc(-c2ccco2)c(-c2ccco2)n1 | 28µM*
O=C1CC(NNC(=O)c2ccccc2)C(=O)N1 (centres undefined) | -11%
Cc1nn(Cc2ccccc2)c2sc(C(=O)NCc3cccnc3)cc12 | -19%
CC(C)C(NC(=O)c1ccc(C(C)(C)C)cc1)C(=O)OCC(=O)NC(=O)Cc1ccccc1 (centres undefined) | -20%
FC(F)(F)c1cccc(Cn2nnnc2-c2cc(Cl)cc(Cl)c2)c1 | -6%
CC(C)(C(O)c1ccc([N+](=O)[O-])cc1)[N+](=O)[O-] (centres undefined) | -3%
Cc1ccc(Nc2nnc(-c3ccc(N4CCOCC4)c([N+](=O)[O-])c3)c3ccccc23)cc1 | -16%
CCOC(=O)CSc1nnc(NCC(=O)OC(C)C)c(=O)[nH]1 | -20%
COC(=O)C1=NN(C(=O)c2cccc(Cl)c2)C(O)(C(C)(C)C)C1 (centres undefined) | -12%

4 of the compounds above, with values ahead of the structure:
HPGD inh,Structure
-12%,Nc1nnc(N2CCCCCC2)s1
1%,Cc1cc(C)c(NC(=O)c2cc(=O)c3ccccc3o2)c(C)c1
-22%,CCC(=O)c1ccc(N2CCCC2)c(F)c1
-9%,CCCCc1ccc(NC(=S)NCc2cccnc2)cc1

Arranged by value in HPGD inh (lowest first): 3 of the compounds above
SMILES	HPGD inh
CCC(=O)c1ccc(N2CCCC2)c(F)c1	-22%
CC(C)C(NC(=O)c1ccc(C(C)(C)C)cc1)C(=O)OCC(=O)NC(=O)Cc1ccccc1 (centres undefined)	-20%
Nc1nnc(N2CCCCCC2)s1	-12%

Further results
SMILES | HPGD inh
O=C(Nc1nncs1)c1cccc(S(=O)(=O)N2CCCCC2)c1 | -8%
CCCOP(=O)(c1ccc(N(C)C)cc1)C(O)c1ccncc1 (centres undefined) | -17%
COC(=O)c1ccc(NC(CC(C)C)C(=O)OC)c([N+](=O)[O-])c1 (centres undefined) | -6%
CS(=O)(=O)N(CC(=O)N1CCN(c2ccccc2)CC1)c1cccc(Br)c1 | -2%
CCC(C)C(=O)NCCc1ccc(S(N)(=O)=O)cc1 (centres undefined) | -5%
Fc1cccc(F)c1CN1CCN(c2ncccn2)CC1 | -13%
COc1ccc(Cl)cc1NC(=O)CN1CCC(n2nnc3cc(F)ccc32)CC1 | -1%
O=S(=O)(c1ccccc1Cl)N1CCCC(c2nc(-c3cccnc3)no2)C1 (centres undefined) | -2%
CSCCC1(C(=O)O)NC(c2ccccc2O)C2C(=O)N(C(C)C)C(=O)C21 (centres undefined) | -5%
O=C1c2ccccc2-c2n[nH]c3cccc1c23 | -21%&-12%
CCOC(=O)c1cc2nc(-c3ccco3)cc(C(F)(F)F)n2n1 | ?
CC(NC(=O)C(CC(=O)OC(C)(C)C)NC(=O)OC(C)(C)C)C(N)=O (centres undefined) | -4%
CCCCCCc1cc2cc(C(=O)Nc3ccc(OC)cc3)c(=O)oc2cc1O | -10%
COc1ccc(C2C(C(=O)c3ccco3)=C(O)C(=O)N2CCOCCO)cc1OC (centres undefined) | -24%
Cc1cc(NS(=O)(=O)c2ccc(NC(=O)c3oc4ccccc4c3C)cc2)no1 | -20%
CCc1ccc2[nH]c(=O)c(CN(Cc3ccccc3OC)C(=O)Nc3ccccc3OC)cc2c1 | -12%
Cc1ccc(C)n1-n1cnc2sc(-c3ccccc3)cc2c1=O | 28µM*
O=C(NNS(=O)(=O)c1ccccc1)c1cc2cc3ccccc3nc2s1 | ?
CC(C)CN(C(=O)COC(=O)Cc1c[nH]c2ccccc12)C1CCS(=O)(=O)C1 (centres undefined) | -6%
O=C(O)CCC(=O)c1ccc2sc3ccccc3c2c1 | -15%
CCCNc1nc(Nc2ccc(C)cc2)nc(N2CCCC2)n1 | -20%
COc1ccc(NC(=O)N2CC3(CCN(C(=O)c4ccc(OC)cc4)CC3)C2)cc1 | -6%
COc1cc(NC(=O)COC(=O)CSc2cc(C)ccc2C)c(C)cc1[N+](=O)[O-] | -15%
COc1ccc2c(c1)C(=O)N(c1ccc(C)cc1C)C(=O)C2 | ?
O=C(CCCOc1ccc(Cl)cc1)NCC1CCCO1 (centres undefined) | 14µM*
CC1CC(C)CN(CCCOc2ccccc2[N+](=O)[O-])C1 (centres undefined) | -6%
CN(CCNC(=O)C1CCN(S(=O)(=O)N2CCOCC2)CC1)CCc1ccccc1 | -16%
COC(=O)c1c(NC(=O)C2COc3ccccc3O2)sc2c1CCN(Cc1ccccc1)C2 (centres undefined) | -26%
Cc1cc(-n2c(C)cc(C(=O)COC(=O)CN=C3NS(=O)(=O)c4ccccc43)c2C)no1 | -12%
Nc1nnc(SCCOc2cccc(Br)c2)s1 | -28%
CCOC(=O)c1c(-c2ccccc2)oc2ccc(OC(C)=O)cc12 | ?
Cc1oc(CSCC2CCCO2)cc1C(=O)O (centres undefined) | -1%
O=C(c1ccco1)N1CCC2(CC1)CN(c1ncccn1)C2 | ?
Cc1ccc(S(=O)(=O)N2c3cc(C)ccc3OCC2C(C)(C)C)cc1 (centres undefined) | -3%
CCOC(=O)C1=C(C)N(C)C(=O)NC1c1c(C)nn(-c2ccccc2)c1C (centres undefined) | -8%
Cc1ccc(OCc2nnc(SCC(=O)NCc3ccccc3)n2C)cc1 | -14%
CN(Cc1ccc(O)cc1)C1CCCCC1 | 0%
CC(=O)Nc1ccc(NC(=O)c2cccc(C(=O)OC(C)C)n2)cc1 | -10%
CSc1nc(-c2ccccc2)cc(C(F)(F)F)c1C#N | -28%
CC(C)Oc1ccc2c(c1)OC(c1ccccc1)(C(F)(F)F)NC2=O (centres undefined) | -7%
COc1ccc(S(=O)(=O)n2nc(OC(=O)c3ccccc3)cc2N)cc1 | ?
CN1CCC/C1=C/C=C1\SC(=S)NC1=O | -20%
CCOC(=O)c1c(NC(=O)c2ccn(CC)n2)sc2c1CCCC2 | ?
CN(C)CCNC(=O)C(=O)NCC1OCCN1S(=O)(=O)c1ccc([N+](=O)[O-])cc1 (centres undefined) | -9%
COc1cc(OC)cc(C(=O)N2CCN=C2SCc2cccnc2)c1 | -5%
O=C(COC(=O)c1ccccc1O)Nc1cccnc1Cl | -8%
Cc1cccc(N2Cc3ccccc3C2=NC(=O)c2ccc(Cl)nc2)c1 | -16%
CCC(C)(C)n1nnnc1C(c1ccncc1)N1CCC(C)CC1 (centres undefined) | 3%
CCN(CC)CC(C)OC(=O)c1cc(OC)c(OC)c(OC)c1 (centres undefined) | -12%
CCOc1cc(CNCc2cccs2)cc(Br)c1OCC | -6%

Of the compounds above, three have a cyano group.
SMILES | HPGD inh
CCOC(=O)Cc1[nH]nc2c1C(c1ccoc1)C(C#N)=C(N)O2 (centres undefined) | -27%
COc1ccccc1C1C(C#N)=C(N)Oc2cc(C)n(CCCn3ccnc3)c(=O)c21 (centres undefined) | -13%
CSc1nc(-c2ccccc2)cc(C(F)(F)F)c1C#N | -28%

Further structures follow.
SMILES | HPGD inh
O=C(Nc1cccc(-c2nnc(-c3ccccc3)o2)c1)c1ccc(Br)o1 | -9%
N#C/C(=C(/O)COC(=O)c1ccc(Cl)c(S(=O)(=O)N2CCOCC2)c1)c1nc2ccccc2[nH]1 | -11%
CCOc1ccc(C(=O)C2CCN(CC(=O)Nc3ccccc3N3CCOCC3)CC2)cc1 | -25%
CC1(C)CC(=O)C2=C(C1)N(c1ccccc1)C(=O)CC2c1ccsc1 (centres undefined) | 2%
Cn1c(=O)c2ncn(CC(=O)NCCC3=CCCCC3)c2n(C)c1=O | -15%
CCOC(=O)c1ccc(NC(=S)N2CCC(C(N)=O)CC2)cc1 | -11%
COc1ccc(Oc2c(C=O)c3ccccc3n2C)cc1 | 32µM*
O=C(NCc1ccccc1Cl)c1cnccn1 | -8%
C[C@]12CCC3c4ccc(O)cc4CCC3C1CCC2=O (some centres undefined) | -1%
NC(=O)c1sc2nc3c(c(-c4ccccc4)c2c1N)CCC3 | -21%
CC(OC(=O)c1snc(C(=O)NC2CCCCC2)c1N)C(=O)NC1CCCCC1 (centres undefined) | ?
O=C(c1ccncc1)N(Cc1cc2ccccc2[nH]c1=O)C1CCCCC1 | -8%
CC(C)Nc1nnc(SCC(=O)Nc2ccc(F)cc2)s1 | -11%
NC(=O)OCC(COC(N)=O)c1ccccc1 | -3%&-11%&0%
CC1CCCCC1NC(=O)C1Cc2ccccc2CN1S(C)(=O)=O (centres undefined) | -6%
CC(C)c1nnc(SCc2ccc(CSc3nnc(C(C)C)n3N)cc2)n1N | -8%
Cc1nc(-n2nnc3cc(C)c(C)cc32)c2c3c(sc2n1)CCCC3 | ?
Cc1ccccc1OCCNc1cc(N2CCN(CCO)CC2)ccc1[N+](=O)[O-] | ?
N#CC1=C2SCN(c3ccccc3)CN2C(=O)CC1c1c(Cl)cccc1Cl (centres undefined) | 7.9µM*
COc1ccc(/C=C/C(=O)NC(=S)NN2CCCCC2c2cccnc2)cc1OC (centres undefined) | ?
C=CCn1c(=N)c(C(=O)OC)cc2c(=O)n3cccc(C)c3nc21 | ?
CC(C)(C)C(=O)Nc1cccc(C(=O)Nc2cc(C(=O)O)cc(C(=O)O)c2)c1 | -7%
CSCC[C@H](NC(=O)Nc1ccc(C)cc1)C(=O)O | 0%
